Assay outcomes as filed in PubChem.
Biofilm kill mix: mixture kills Candida albicans biofilm cells; C. albicans biofilm persisters + clotrimazole, fluorescence viability; primary screen in compound mixtures of four per well; inhibition, % at 7.6 µM; 120,000 tested, 0.02% active;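 active means inhibition above 30.3% in the primary screen of four-compound pools, then above 30% when the compound was retested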;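 further: compounds exposed to preformed 24 h biofilms for 48 h; the number belongs to the whole pool; some results filed as inactive read as strong as hits; inactives centre near 12; 0% = biofilm with clotrimazole alone and 100% = kill control; retested singly at about 60 µM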
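Test system: C. albicans biofilms. Buffer or medium: RPMI/MOPS medium, pH 7.0. Timing: 48 h compound exposure at 37 °C. Technique: Alamar Blue fluorescence. Evaluation: percent inhibition of biofilm viability.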
* hit, by the source's call. An excerpt (hit frequency here may not be typical).

SMILES	Biofilm kill mix
Cc1cc2nc(-c3cccnc3SCC(=O)NC(C)C)[nH]c2cc1C	16
COc1cccc(CC2(CO)CCCN(Cc3cn[nH]c3-c3cc(C)ccc3C)C2)c1 (centres undefined)	19
COCCCNC(=O)C(=O)N/N=C/c1cc2c(cc1Br)OCO2	-8
Cc1c(CCOC(=O)c2ccccc2)sc[n+]1Cc1ccccc1	23
O=C(CC1C(=O)NCCN1C/C=C/c1ccccc1)NCCc1cccnc1 (centres undefined)	3
O=C(O)c1cccc(NC(CNS(=O)(=O)c2ccc(Cl)cc2)c2ccccc2)c1 (centres undefined)	16
O=C(NCc1ccccc1)c1cc(S(=O)(=O)N2CCCCC2)ccc1N1CCOCC1	26
O=C(NCc1ccccc1)C1CCCN(S(=O)(=O)c2cccc3nonc23)C1 (centres undefined)	11
O=C(NC1=NCCS1)c1ccc(Cl)c(S(=O)(=O)N2CCCC2)c1	9
CS(=O)(=O)N(CC(=O)NC1CCCC1)C1CCCCC1	10
CS(=O)(=O)N(CC(=O)N1CCCCC1)Cc1ccc(Cl)cc1	8
COc1cc(NC(=S)N2CCN(CCO)CC2)c(OC)cc1Cl	9
Cc1cccc[n+]1CC(=O)c1ccc2c(c1)OCCO2	15
Cc1ccc(OCC(=O)Nc2ccc3c(c2)OCCO3)cc1C	18
Cc1cc(/C=N/n2cnnc2)c(O)c([N+](=O)[O-])c1	10
Cn1nnc(NC(=S)NC(=O)c2cc3ccccc3o2)n1	20
COc1ccc(C2CC(c3ccc(Br)cc3)=NN2C(=O)CSC2=NCCS2)cc1 (centres undefined)	14
CCOC(=O)c1cnc2c(OC)cccc2c1N1CCN(c2ccccn2)CC1	-1
O=C(NCc1ccco1)c1ccc2c(c1)CCO2	26
CC(=O)c1cccc(NC(=S)NNC(=O)c2ccc(C)c([N+](=O)[O-])c2)c1	11
CC(C)N(CCn1c(SCC(=O)N2CC(=O)Nc3ccccc32)nc2ccccc2c1=O)C(C)C	7
Cc1nc2ccccn2c1C(=O)C(=O)Nc1cc(F)ccc1F	0
COc1cc(/C=C(\C#N)c2nnc(N3CCOCC3)n2-c2ccccc2)ccc1O	8
CCOC(=O)c1c(C)[nH]c(C(=O)COC(=O)/C=C/c2ccc(O)c(OC)c2)c1C	4
CCN(CC)CCn1c(/N=C/c2cc(Br)ccc2O)nc2ccccc21	7

Random excerpt: 5 entries already listed, in no set order.
SMILES	Biofilm kill mix
CC(C)N(CCn1c(SCC(=O)N2CC(=O)Nc3ccccc32)nc2ccccc2c1=O)C(C)C	7
Cn1nnc(NC(=S)NC(=O)c2cc3ccccc3o2)n1	20
Cc1cccc[n+]1CC(=O)c1ccc2c(c1)OCCO2	15
Cc1c(CCOC(=O)c2ccccc2)sc[n+]1Cc1ccccc1	23
COCCCNC(=O)C(=O)N/N=C/c1cc2c(cc1Br)OCO2	-8

The main list resumes; the 2 compounds before the break are reprinted first.
SMILES	Biofilm kill mix
CCOC(=O)c1c(C)[nH]c(C(=O)COC(=O)/C=C/c2ccc(O)c(OC)c2)c1C	4
CCN(CC)CCn1c(/N=C/c2cc(Br)ccc2O)nc2ccccc21	7
Cc1nn(S(=O)(=O)c2cccc([N+](=O)[O-])c2)c(C)c1Br	22
O=C(Nc1ccncc1)c1ccc2ccccc2c1	1
CCOc1ccc(S(=O)(=O)/N=C(\N)c2ccccc2)cc1	24
CCOC(=O)CN(C(=O)CNC(=O)c1cccs1)C(C(=O)NC1CCCC1)c1ccncc1 (centres undefined)	1
Cc1nnsc1C(=O)Nc1cc(Cl)ccc1Cl	13
Cc1ccc2c(c1)COc1c3ccc(C(=O)NCCO)cc3nn1-2	1
Cc1cccc(C(=O)Nc2nnc(-c3ccco3)o2)c1	13
O=C(Cn1c(NCCO)nc2ccccc21)N1CCN(Cc2ccccc2)CC1	21
Cc1cccc(C)c1NC(=O)COC(=O)c1cccnc1	-1
Cn1c(-c2ccccc2)n[nH]c1=S	9
O=C(N/N=C/c1ccc([N+](=O)[O-])s1)c1ccncc1	16
CCOC(=O)Cc1csc(NC(=O)c2ccc(S(=O)(=O)N(CCOC)CCOC)cc2)n1	21
Cc1ccc(C(=O)Cn2nnc3ccccc32)cc1[N+](=O)[O-]	18
O=C(Nc1ccc2c(c1)OCO2)N1CCN(c2ccc(F)cc2)CC1	6
CC(C(=O)Nc1nncs1)N1C(=O)C2C3C=CC(C3)C2C1=O (centres undefined)	3
COc1cccc(CNCc2cccnc2)c1OCc1ccccc1	-7
O=C(Nc1cccnc1)c1ccc(-c2ccc(Cl)cc2)o1	22
N#Cc1c(NC(=O)c2ccccc2)sc2c1CCCCC2	19
CC/C(C)=N\N=C\c1c(O)n(CC)c2cc(C3=NNC(=O)CC3)ccc12	21
COCCn1c(-c2ccc(OC)cc2)cnc1SCC(=O)Nc1ccc(OC)cc1OC	0
O=C1C=C(O)C(n2cncn2)C(c2ccc3c(c2)OCO3)C1 (centres undefined)	6
CC1=CN2C(=NC(=O)CC2(C)C(=O)N(CC(=O)NC2CCCC2)c2cc(C)cc(C)c2)C=C1 (centres undefined)	10
COC(=O)/C=C1\S/C(=N/N=C/c2ccco2)NC1=O	7
CCOC(=O)C1CCN(c2c(-c3ccccc3)c3cc(Cl)ccc3[nH]c2=O)CC1	12
Brc1ccc2c(c1)OCCOCCOCCOCCOCCO2	12

(next part)
SMILES	Biofilm kill mix
Fc1ccc(Nc2nc(N/N=C/c3ccco3)nc(N3CCCCC3)n2)cc1	1
CCOC(=O)Cn1nc(C)n(-c2c(C)cccc2C)c1=O	11
Cc1ccc(SC(CC(=O)c2ccc(C(C)(C)C)cc2)C(=O)O)cc1 (centres undefined)	8
CCN1C(=O)N(CC)C2C1N(CO)C(=O)N2CO (centres undefined)	12
O=C(Nc1ccc(C(=O)O)cc1)/C(=C\c1ccc2c(c1)OCO2)NC(=O)c1ccco1	35
O=C(Nc1ccccc1F)C(=Cc1sc(N2CCOCC2)nc1-c1ccccc1)C(=O)Nc1ccccc1F	17
COC(=O)c1nn(-c2ccc(F)cc2)ccc1=O	7
CCOC(=O)c1cn(CC)c2cc(F)c(F)cc2c1=O	10
O=C(/C=C/c1ccccc1Cl)N1CCCN(C(=O)/C=C/c2ccccc2Cl)CC1	24
CN(CC(=O)OCC(N)=O)S(=O)(=O)c1ccc(Cl)cc1	5
CCCCCC(=O)NNC(=S)NC(=O)c1ccc([N+](=O)[O-])cc1	19
Cc1ccc(C(=O)NCc2nnc(SCC(=O)NC(C)c3ccccc3)n2C)cc1 (centres undefined)	20
CC1(C)C2CCC(C2)C1C/C=N/NC(N)=S (centres undefined)	20
COc1ccc(N/C=C2/Sc3ccccc3NC2=O)cc1	3
CC(=O)c1ccc(N2CCN(C(=O)CCCc3nc4ccccc4s3)CC2)cc1	18
O=C(NC(=S)Nc1ccc2cn[nH]c2c1)c1ccccc1	14
COc1ccc2nc(NC(=O)Cn3cnc4ccccc4c3=O)sc2c1	13
COc1ccc(NC(=O)c2[nH]ncc2[N+](=O)[O-])cc1	1
Cc1ccc(Oc2ncnc(N)c2[N+](=O)[O-])cc1	21
COc1cc2nc(=S)n(CCCN3CCOCC3)c(N)c2cc1OC	8
COc1ccccc1CNC(=O)c1ccc(OC(F)F)c(OC)c1	13
CCc1ccc(S(=O)(=O)NCc2ccc(N3CCN(C)CC3)cc2)cc1	17
COCCN1Cc2cccc(C(=O)NC3CCCCCC3)c2C1=O	22
Cn1cnnc1Sc1ccc(C(=O)OCC(=O)Nc2cc(Cl)cc(Cl)c2)cc1[N+](=O)[O-]	11
Cc1sc(NC(=O)c2ccco2)c(C(Nc2ccccn2)c2ccccc2)c1C (centres undefined)	2

Brought forward from above: 5 compounds, followed by the next part.
SMILES	Biofilm kill mix
COc1ccccc1CNC(=O)c1ccc(OC(F)F)c(OC)c1	13
CCc1ccc(S(=O)(=O)NCc2ccc(N3CCN(C)CC3)cc2)cc1	17
COCCN1Cc2cccc(C(=O)NC3CCCCCC3)c2C1=O	22
Cn1cnnc1Sc1ccc(C(=O)OCC(=O)Nc2cc(Cl)cc(Cl)c2)cc1[N+](=O)[O-]	11
Cc1sc(NC(=O)c2ccco2)c(C(Nc2ccccn2)c2ccccc2)c1C (centres undefined)	2
CCOc1ccc(/C=N/OCC(=O)Nc2cc(C)on2)cc1	13
O=C(NC1(C(F)(F)F)N=C2SCCN2C1=O)c1ccccc1F (centres undefined)	20
O=C(CCCn1cc([N+](=O)[O-])cn1)N1CCCCC1	11
O=C(N/N=C/c1cccc(F)c1)c1c(O)c2ccccc2[nH]c1=O	12
COc1ccc(CCN(Cc2cccs2)S(=O)(=O)c2ccc(S(=O)(=O)N3CCCCCC3)cc2)cc1OC	23
COC(=O)c1ccc(NC(=O)C2CCCN2S(=O)(=O)c2ccc(F)cc2)cc1 (centres undefined)	7
CCN(CC)S(=O)(=O)c1cc(NS(=O)(=O)c2ccc(Cl)c(C(=O)O)c2)ccc1C	-5
O=C1CCCC(c2ccccc2)N1 (centres undefined)	7
COC(=O)c1c(-c2ccccc2)csc1NC(=O)C1CC=CCC1C(=O)O (centres undefined)	20
CCOC(=O)C1CCCN(CC(=O)Nc2cc(C)cc(C)c2)C1 (centres undefined)	10
CCn1cc(S(=O)(=O)CC(=O)Nc2ccc3c(c2)OCO3)c2ccccc21	11
CCN(CC)S(=O)(=O)c1ccc2[nH]c(=O)cc(C(=O)Nc3cccc(C(C)=O)c3)c2c1	0
CCc1c(O)cc2n(c1=O)-c1ccc(Cl)cc1C2(C)C	15
O=C(c1ccccc1Cl)N1CCC(n2cccc2)CC1	1
CCOC(=O)N1CC=C2C(C#N)=C(N)C(C#N)(C#N)[C@H](c3cccs3)C2C1 (some centres undefined)	-1
Cc1ccc(NC(=O)COC(=O)CCc2ccc(S(=O)(=O)N3CCOCC3)cc2)c(C)c1	7
CCn1c(SCC(=O)Nc2ccc(C)cc2)nc2nc3c(cc2c1=O)CCCC3	6
CCn1c(CNC(=O)c2ccccc2F)nnc1SCC(=O)NC1CCCCC1C (centres undefined)	15
Cc1c(Cl)cccc1Nc1ncccc1C(=O)OCC(O)CO (centres undefined)	6
COc1ccc(N2CCN(C(=O)Cc3ccc(S(=O)(=O)N4CCOCC4)s3)CC2)cc1	7
OCCC1CN(Cc2ccccc2OC2CCCC2)CCN1Cc1ccsc1 (centres undefined)	14
CCCCN=C(NNc1ccc(Br)cc1)C(=O)OCC	9
COC(=O)Cn1ncc(N2C3CC(CC(C)(C)C3)C2C)c(Cl)c1=O (centres undefined)	9
Cc1cc(C)n(C(=O)c2ccccc2[N+](=O)[O-])n1	9
Cc1ccnc2nc(C(=O)OCC(=O)Nc3ccccc3C(C)(C)C)nn12	8

The listing continues.
SMILES	Biofilm kill mix
Cc1ccc2c(c1)C(c1ccncc1)=NNC(c1ccccc1)=N2	-18
CC(C)CNC(=O)c1cccc(NC(=O)COc2ccc([N+](=O)[O-])cc2)c1	9
NNC(=S)NC1CCCCC1	3
Cn1c(SCC(=O)N/N=C/C=C/c2ccccc2[N+](=O)[O-])nc2ccccc21	17
CCC(C)(C)NC(=O)C(c1ccc(OC)cc1)N(Cc1cccs1)C(=O)CCC(=O)Nc1cc(C)on1 (centres undefined)	6
CCOC(=O)c1cc2c(=O)n3ccccc3nc2n(CC2CCCO2)c1=NC(=O)/C=C/c1ccccc1 (centres undefined)	3
Cc1cc(C)c(C#N)c(SCc2cn3ccccc3n2)n1	8
Cc1nn(-c2ccccc2)c(Cl)c1/C=N/Nc1nc2ccccc2n1C	14
O=C(O)c1cccc(NS(=O)(=O)c2ccc3c(c2)OCCCO3)c1	12
Nc1nnc(SCc2nnc(-c3ccccc3)o2)s1	-1
COc1cccc(NC(=O)CN(C)CC(=O)Nc2ccc(Cl)cc2[N+](=O)[O-])c1	5
Cc1nc2c(Br)c(C)nn2c2c1CCC2	9
N/C(Cc1ccc([N+](=O)[O-])cc1)=N\OC(=O)c1ccc(Br)cc1	14
Cc1ccc(C(=O)Nc2ccccc2Sc2ccccc2)cc1	16
COc1ccccc1C(=O)COC(=O)c1ccccc1O	14
CS(=O)(=O)c1ccccc1C(=O)Nc1nc2ccccc2[nH]1	3
CN(C)S(=O)(=O)c1cccc(NC(=O)COC(=O)c2cc3ccccc3oc2=O)c1	-7
COc1cnn(-c2ccc(F)cc2)c(=O)c1Br	16
COc1cc(-c2cc(=O)c3c(O)c(OC)c(OC)cc3o2)cc(OC)c1O	25
O=C(CSc1nnc(COc2ccccc2)o1)N1CCN(c2ccccc2)CC1	14
COc1ccc(NC(=S)N(CCCN2CCOCC2)C(C)c2cc3ccccc3o2)cc1 (centres undefined)	6
Cc1ccc(Nc2ncnc(-n3cccc3)n2)cc1Cl	15
COc1ccc(OC)c(NC(=O)/C=C/c2ccccc2[N+](=O)[O-])c1	11
COC(=O)C1=C(C)N(c2ccccc2)C(=S)NC1c1ccccc1C(F)(F)F (centres undefined)	6
COc1cc(C(=O)Nc2ccc(C(C)=O)cc2)c(Br)c(OC)c1OC	5
COc1ccc(OC)c(CNC(=O)CCc2nc(-c3cccs3)no2)c1	16
COc1ccc(CCNC(=O)c2n[nH]c3ccccc23)cc1	12
Cc1cc(OCC(=O)NCc2ccccn2)cc(C)c1Br	0
O=c1ccn(Cc2ccccc2)c2ccccc12	12
